GIRK2 activ: GIRK2 channel activation. P48051. HEK293-GIRK2 thallium flux, Thallos fluorescence. calls only for hits at 25 µM. hit rate 0.05% among 63,000;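 active = among the strongest 0.2% of first-round signals and kept after retests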;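 also: first round at about 10 µM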
Target sequence (P48051 whole entry, looked up): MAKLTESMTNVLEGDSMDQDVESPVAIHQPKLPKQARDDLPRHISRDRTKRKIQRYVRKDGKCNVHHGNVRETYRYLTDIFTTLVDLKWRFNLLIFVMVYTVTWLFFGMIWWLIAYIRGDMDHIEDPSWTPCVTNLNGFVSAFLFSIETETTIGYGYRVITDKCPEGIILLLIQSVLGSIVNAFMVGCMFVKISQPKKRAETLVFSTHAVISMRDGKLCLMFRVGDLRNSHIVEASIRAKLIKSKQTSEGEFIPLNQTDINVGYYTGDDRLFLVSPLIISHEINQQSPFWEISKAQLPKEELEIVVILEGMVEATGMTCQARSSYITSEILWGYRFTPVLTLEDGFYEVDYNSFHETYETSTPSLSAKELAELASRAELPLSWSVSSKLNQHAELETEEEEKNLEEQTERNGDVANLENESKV
Calls only; i = inactive.

item | SMILES | GIRK2 activ
1 | Cc1nc(-c2ccccc2)sc1C(=O)Nc1cccc(-c2ccc(=O)n(C)n2)c1 | i
2 | O=C1OC2CC1N(C(=O)CSc1nc3ccccc3s1)C2 (stereo not given) | i
3 | Nc1c(C(=O)Nc2ccc(Br)cc2)nnn1Cc1cccc(Br)c1 | i
4 | Cc1[nH]ncc1CNC(=O)c1nnn(-c2ccccc2Cl)c1-c1ccccn1 | i
5 | Cc1cc(NC(=O)C(=O)NCCc2ccsc2)ccc1N1CCCC1=O | i
6 | Cc1nc(C)c(C(=O)N2CCC(Oc3nc4c(C)ccc(C)c4s3)CC2)s1 | i
7 | COc1ccc(CNC(=O)Cn2ccn3nc(-c4ccc(OC)c(OC)c4)cc3c2=O)cc1OC | i
8 | COc1ccc(N2CCN(C(CNS(=O)(=O)c3ccc(C)cc3)c3cccnc3)CC2)cc1 (stereo not given) | i
9 | O=C(Nc1ccc(S(=O)(=O)Nc2nccs2)cc1)c1csc2nc(-c3ccc(F)cc3)cn12 | i
10 | O=C(Cc1cccs1)N1CCC(Cn2c(COc3ccccc3)nc3ccccc32)CC1 | i

item | SMILES | GIRK2 activ
11 | COc1ccc(CNC(=O)N2CCN(CC(=O)c3ccco3)CC2)cc1OC | i
12 | O=C(Nc1ccc2c(c1)CCCN2C(=O)c1cccs1)c1ccc2nsnc2c1 | i
13 | Cc1ccc(NC(=O)Cn2nc(C(=O)N3CCN(C)CC3)cc2-c2cccs2)cc1F | i
14 | O=C(NC1CCCC1)C1CCCN(c2ccc(-c3ccco3)nn2)C1 (stereo not given) | i
15 | Cc1cccc(-n2c(=O)c3c(c4cc(C)ccc4n3C)n(CC(=O)Nc3ccccc3C(F)(F)F)c2=O)c1 | i
16 | Cc1nc2c(sc3cccc(F)c32)c(=O)n1CC(=O)Nc1cccc(F)c1 | i
17 | Cc1cc(NC(=O)C2CCN(C(=O)C3(c4cccs4)CCCC3)CC2)no1 | i
18 | COC(=O)c1ccc(CN2CCc3nc(NC(=O)C4CC4)sc3C2)o1 | i
19 | CCOc1ccc(-c2[nH]ncc2-c2ccccc2OC)c(O)c1 | i
20 | CCCCOc1ccc(NC(=O)N2CCC(c3nc4ccccc4[nH]3)CC2)cc1 | i

item | SMILES | GIRK2 activ
21 | Cc1ccc(S(=O)(=O)N2CCC(S(=O)(=O)c3nncn3C)CC2)cc1C | i
22 | CCOc1cc(S(=O)(=O)N2CCC(C(N)=O)CC2)ccc1F | i
23 | COc1cccc(CNC(=O)C2CCN(c3nc4c(-c5cccc(C)c5)csc4c(=O)[nH]3)CC2)c1 | i
24 | Cc1nc2c(sc3cccc(F)c32)c(=O)n1CC(=O)NCCC1=CCCCC1 | i
25 | COc1cccc(CSc2nc(CC(=O)Nc3ccc(C(N)=O)cc3)cc(=O)[nH]2)c1 | i
26 | O=C(CSc1nc2c(sc(=S)n2-c2ccccc2)c(=O)[nH]1)NCc1ccco1 | i
27 | O=C(NCC1CCN(C(=O)c2cccnc2)CC1)C(c1ccccc1)c1ccccc1 | i
28 | C=Cc1ccc(Cn2nc3n(CC(C)C)c(=O)c4ccc(C(=O)NC(C)C)cc4n3c2=O)cc1 | i
29 | Nc1ccc2ncc3c(=O)[nH][nH]c3c2c1 | i
30 | COc1ccccc1C(=O)COC(=O)CN1C(=O)c2ccccc2C1=O | i

The final 5 records of the section above lead into the next:
item | SMILES | GIRK2 activ
26 | O=C(CSc1nc2c(sc(=S)n2-c2ccccc2)c(=O)[nH]1)NCc1ccco1 | i
27 | O=C(NCC1CCN(C(=O)c2cccnc2)CC1)C(c1ccccc1)c1ccccc1 | i
28 | C=Cc1ccc(Cn2nc3n(CC(C)C)c(=O)c4ccc(C(=O)NC(C)C)cc4n3c2=O)cc1 | i
29 | Nc1ccc2ncc3c(=O)[nH][nH]c3c2c1 | i
30 | COc1ccccc1C(=O)COC(=O)CN1C(=O)c2ccccc2C1=O | i
31 | Cc1nnc(C2CCCN(C(=O)NCc3cccc4ccccc34)C2)s1 (stereo not given) | i
32 | Cc1cc(N2C(=O)c3oc4ccccc4c(=O)c3C2c2ccc([N+](=O)[O-])cc2)no1 (stereo not given) | i
33 | COc1cccc(C(=O)Nc2nnc(-c3ccc(C)cc3C)o2)c1OC | i
34 | O=C(CCCn1cccc1)N1CCN(c2ccccn2)CC1 | i
35 | Cc1ccc(C2CC3C4NN=C(CCC(=O)N5CCN(c6ccc(F)cc6)CC5)N4C=CN3N2)cc1C (stereo not given) | i
36 | COc1ccc(-c2n[nH]c(C)c2Oc2ccccc2Br)c(O)c1 | i
37 | O=C(CSc1nnc2ccc3ccccc3n12)N1CCCCCC1 | i
38 | Cc1ccc(S(=O)(=O)N2CCN(C)CC2)cc1 | i
39 | CC(=O)N1CCN(c2ncnc3c2nnn3-c2ccc(Cl)cc2)CC1 | i
40 | CCc1cc2c(=O)n(Cc3ccco3)c(SCC(=O)Nc3nccs3)nc2s1 | i

item | SMILES | GIRK2 activ
41 | CN(C)CCNc1oc(-c2ccc(S(=O)(=O)N3CCOCC3)cc2)nc1C#N | i
42 | CC1(C)OCC2(CO1)CN(S(=O)(=O)c1ccc3c(c1)OCCO3)C2 | i
43 | Cc1ccc(NC(=O)CSc2ccc(-c3ccccc3Cl)nn2)c(Cl)c1 | i
44 | O=C(NCc1cccs1)N1CCN(Cc2nnnn2-c2ccc(F)cc2)CC1 | i
45 | Cc1cc(C(=O)N2CCCC(c3nnc(-c4ccccc4F)s3)C2)c(C)o1 (stereo not given) | i
46 | O=C(c1ccoc1)N(Cc1ccoc1)Cc1cccs1 | i
47 | COc1ccc(C)cc1S(=O)(=O)Nc1ccc2c(c1)N(S(=O)(=O)c1ccc(F)cc1)CCC2 | i
48 | Cc1noc(-c2ccc(NC(=O)Cn3c(=O)oc4ccccc43)cc2)n1 | i
49 | O=S(=O)(c1c(F)cccc1F)N1CCC(Oc2ccc(C(F)(F)F)cn2)CC1 | i
50 | O=C(Nc1cccc(N2CCCC2=O)c1)c1ncc(-c2ccccc2)o1 | i

4 entries from above, with each value named:
46	O=C(c1ccoc1)N(Cc1ccoc1)Cc1cccs1
  GIRK2 activ: i
49	O=S(=O)(c1c(F)cccc1F)N1CCC(Oc2ccc(C(F)(F)F)cn2)CC1
  GIRK2 activ: i
47	COc1ccc(C)cc1S(=O)(=O)Nc1ccc2c(c1)N(S(=O)(=O)c1ccc(F)cc1)CCC2
  GIRK2 activ: i
41	CN(C)CCNc1oc(-c2ccc(S(=O)(=O)N3CCOCC3)cc2)nc1C#N
  GIRK2 activ: i

Remaining list, next part:
item | SMILES | GIRK2 activ
51 | CCOc1cccc2c1Oc1nc(-c3ccc(OC)c(OC)c3)[nH]c(=O)c1C2 | i
52 | CCc1cccc(NC(=O)Nc2cnc(N(C)C)nc2)c1 | i
53 | COc1ccc(S(=O)(=O)Nc2ccc3c(c2)CCC(=O)N3Cc2ccccc2)cc1Cl | i
54 | CN(CC(=O)Nc1nc2c(s1)CCCC2)c1nc2c(F)cccc2s1 | i
55 | COc1ccc(S(=O)(=O)c2cnc3ccc(OC)cc3c2N2CCN(C)CC2)cc1 | i
56 | CSc1ccc(CC(=O)N(Cc2ccncc2)c2nc3ccc(F)cc3s2)cc1 | i
57 | O=C(Nc1ccc2c(c1)OCCO2)c1ccc(Oc2nccnc2N2CCOCC2)cc1 | i
58 | CCCN1C(=O)CCc2cc(NC(=O)COc3ccccc3F)ccc21 | i
59 | Cc1ccccc1C(=O)Nc1sc(C)c(C)c1-c1nc2ccccc2s1 | i
60 | CCc1cccc2c1[nH]c1cc(NC(=O)CCc3c(C)[nH]c(=O)[nH]c3=O)ccc12 | i

item | SMILES | GIRK2 activ
61 | CCCCOc1ccc(C(=O)Nc2ccc3c(c2)CCC(=O)N3CC)cc1 | i
62 | CCCc1nc2c(c(=O)c3ccccc3n2C)c(=O)n1CCc1ccccc1 | i
63 | CCOc1cc(/C=C(\C#N)c2nc(-c3cccc([N+](=O)[O-])c3)cs2)ccc1OC(C)C | i
64 | COC(=O)Cn1c(=O)c2c(nc3n(CCN4CCOCC4)c(C)cn23)n(C)c1=O | i
65 | CC(C)c1ccc(OCC(=O)NCc2n[nH]c(=O)c3ccccc23)cc1 | i
66 | COCCNC(=O)/C(C#N)=C1\N=C(NC(=O)c2cccc([N+](=O)[O-])c2)c2ccccc21 | i
67 | COc1ccc(CN2C(=O)C(O)(CC(C)=O)c3ccccc32)cc1OC (stereo not given) | i
68 | O=C(CSc1nnc(CCc2nc3ccccc3s2)o1)NCc1ccco1 | i
69 | C=C(C)COc1ccc(-c2[nH]ncc2Oc2ccc(C(=O)OC)cc2)c(O)c1 | i
70 | CCc1nnc2ccc(N3CCN(S(=O)(=O)c4ccc5c(c4)CCCC5)CC3)nn12 | i

item | SMILES | GIRK2 activ
71 | N#Cc1ccc(OC2CCN(C(=O)Cn3ccc4ccccc43)CC2)nc1 | i
72 | CC(C)(C)S(=O)(=O)c1ccc(N2CCN(c3ncccn3)CC2)nn1 | i
73 | Cc1cc(C(F)(F)F)nc(CCNC(=O)C2(c3ccc(Cl)cc3)CCCC2)n1 | i
74 | COC(=O)c1sccc1NC(=O)CSc1nccn2nc(-c3ccc(OC)cc3)cc12 | i
75 | Cc1ccc(CNC(=O)c2cc3c(=O)n4ccccc4nc3n(C)c2=N)cc1 | i
76 | O=C(Nc1ccc2c(c1)C(=O)NCC2)c1ccc2nsnc2c1 | i
77 | Cc1ccccc1C(=O)N1CCCSCC1CN1CCOCC1 (stereo not given) | i
78 | Cc1ccc(Cl)cc1NC(=O)CN1CCN(S(=O)(=O)N(C)C)CC1 | i
79 | COC(=O)c1cccc(NC(=O)Cn2nc3ccc(-c4ccc(C)c(C)c4)nn3c2=O)c1 | i
80 | COc1ccc(S(=O)(=O)NCCOc2ccc(-c3ccc(F)cc3)nn2)cc1F | i

item | SMILES | GIRK2 activ
81 | C=Cc1ccc(CSc2nc3c(c(=O)[nH]2)CN(Cc2ccc(OC)cc2)CC3)cc1 | i
82 | O=C(NCCOc1cc(N2CCCC2)ncn1)c1ccccc1 | i
83 | CCOC(=O)Cn1c(=O)c2c(nc3n2CC(C)CN3c2ccc(OCC)cc2)n(C)c1=O (stereo not given) | i
84 | Cc1ccc(-c2ccc(N3CCCC(C(=O)N4CCC(C)CC4)C3)nn2)cc1C (stereo not given) | i
85 | C(#CCn1c2ccccc2c2ccccc21)CN1CCOCC1 | i
86 | COc1ccc(CCC(=O)NCC(O)C2CCCCC2)cc1 (stereo not given) | i
87 | N#Cc1cccc(C(=O)NCCC(O)c2ccc3c(c2)OCO3)c1 (stereo not given) | i
88 | COc1ccc(-c2noc(-c3ccc(=O)n(CC(=O)NCCCc4ccccc4)c3)n2)cc1 | i
89 | COc1cccc(NC(=O)N2CCC(CSc3ccccn3)CC2)c1OC | i
90 | CSc1ccc(C(=O)Nc2cc(C)nn2-c2nc3ccccc3s2)cc1 | i

item | SMILES | GIRK2 activ
91 | CC(C)(Oc1ccc(Cl)cc1)C(=O)N1CCN(CCn2cccn2)CC1 | i
92 | Cc1cn2c3c(=O)[nH]c(=O)n(C)c3nc2n1CCOCCO | i
93 | CCCCN(CCCC)S(=O)(=O)CCNC(=O)c1ccc2c(c1)OCO2 | i
94 | Cn1cccc1CN(Cc1cccs1)C(=O)/C=C/c1ccccc1Cl | i
95 | CCc1cccc(NC(=O)Cn2c(=O)n(CCCCC(=O)NC3CCCC3)c(=O)c3ccccc32)c1 | i
96 | CSc1ccc(CNC(=O)C2CCCN(c3nc4c(-c5ccccc5)csc4c(=O)[nH]3)C2)cc1 (stereo not given) | i
97 | O=C(NC(c1ccccc1)c1ccccc1)N1CCC(Oc2cnccn2)CC1 | i
98 | Cc1cc(N2C(=O)C(O)=C(C(=O)c3ccc(C)o3)C2c2ccc(Cl)c(Cl)c2)no1 (stereo not given) | i
99 | O=C(CSc1nc2c(sc(=S)n2-c2ccccc2)c(=O)[nH]1)NCc1ccccc1Cl | i
100 | Cc1ccc(Cn2c(C3CC(=O)N(C)C3)nc3ccccc32)cc1 (stereo not given) | i

item | SMILES | GIRK2 activ
101 | COCc1nc2ccccc2n1CC(=O)NCc1ccco1 | i
102 | COc1ccc(SCC2CCN(C(=O)NCc3ccc(F)cc3)CC2)cc1 | i
103 | O=C(Nc1sc2c(c1CN1CCOCC1)CCC2)c1ccc(F)cc1 | i
104 | Cc1ccc(Cn2c(CO)cnc2SCCC(C)C)cc1 | i
105 | COC(=O)c1sccc1S(=O)(=O)Nc1ccc(-n2nnn(C)c2=O)cc1 | i
106 | Cc1nc2ccccc2n1CC1CCN(C(=O)c2c(F)cccc2F)CC1 | i
107 | CC(C)c1nccn1CC1CCN(C(=O)Cc2ccc(S(=O)(=O)C(C)C)cc2)CC1 | i
108 | Cc1cccn2c(=O)c3cc(C(=O)NC4CC(C)CC(C)(C)C4)sc3nc12 (stereo not given) | i
109 | Cc1ccc(CNC(=O)c2cccc(-n3ccnc3SCC(=O)Nc3cc(F)ccc3F)c2)o1 | i
110 | COc1cc(OC)c(NC(=O)CSc2ncc(-c3ccc(Cl)cc3)o2)cc1Cl | i

item | SMILES | GIRK2 activ
111 | O=S(=O)(c1ccc(Cl)s1)N1CCN(c2ccc(-c3noc(C(F)(F)F)n3)cn2)CC1 | i
112 | COc1ccc(S(=O)(=O)N2CCCOC2CNC(=O)C(=O)NCCN(C)C)cc1C (stereo not given) | i
113 | CCCCCCCCCCC[C@@H](C[C@@H]1OC(=O)[C@H]1CCCCCC)OC(=O)[C@H](CC(C)C)NC=O | i
114 | CC(C)(C)NC(=O)Cn1c(=O)n(-c2ccc(F)cc2)c(=O)c2oc3ccccc3c21 | i
115 | O=C(CCn1c(=O)oc2ccc(Cl)cc21)N1CCN(c2ccccc2Cl)CC1 | i
116 | O=C(c1nnn(-c2ccc(F)cc2)n1)N1CCOCC1 | i
117 | O=C(c1ccc2[nH]ccc2c1)N1CCCSCC1CN1CCCC1 (stereo not given) | i
118 | CCOC(=O)c1c(NCCc2cccs2)c2ccc(Cl)cc2[nH]c1=O | i
119 | O=S(=O)(c1ccc2nncn2c1)N(Cc1cccc(F)c1)c1ccc(F)c(F)c1 | i
120 | COc1ccc(-c2noc(-c3ccc(=O)n(CC(=O)Nc4cc(C)c(Cl)cc4OC)c3)n2)cc1 | i

item | SMILES | GIRK2 activ
121 | Cc1cccc(NC(=O)CSc2nccn2-c2cccc(C(=O)Nc3ccccc3)c2)c1 | i
122 | Cn1c(=O)n(Cc2cccnc2)c(=O)c2c(N3CCN(C(=O)c4ccco4)CC3)ccnc21 | i
123 | COCC1CCCN(C(=O)c2cc(C)cs2)C1 (stereo not given) | i
124 | Cc1cccc(C)c1NC(=O)c1csc2nc(-c3ccc(F)cc3)cn12 | i

Screening data deposited in PubChem BioAssay by Vanderbilt University.

Only part of the results is shown; count on the stated rates, not on these rows.
